From PubChem
VDR inhibitor – blocks the human vitamin D receptor | AID 504847 | VDR-SRC2-3 peptide fluorescence polarization, 2 h | Potency, µM, inactives show max response, negative = inhibition, usual class: inhibitors | hit rate 0.93% among 400,000 | P11473; active = well fitted inhibition curve with a large enough effect; also: series mostly up to about 120 µM
Target sequence (P11473 whole entry, looked up): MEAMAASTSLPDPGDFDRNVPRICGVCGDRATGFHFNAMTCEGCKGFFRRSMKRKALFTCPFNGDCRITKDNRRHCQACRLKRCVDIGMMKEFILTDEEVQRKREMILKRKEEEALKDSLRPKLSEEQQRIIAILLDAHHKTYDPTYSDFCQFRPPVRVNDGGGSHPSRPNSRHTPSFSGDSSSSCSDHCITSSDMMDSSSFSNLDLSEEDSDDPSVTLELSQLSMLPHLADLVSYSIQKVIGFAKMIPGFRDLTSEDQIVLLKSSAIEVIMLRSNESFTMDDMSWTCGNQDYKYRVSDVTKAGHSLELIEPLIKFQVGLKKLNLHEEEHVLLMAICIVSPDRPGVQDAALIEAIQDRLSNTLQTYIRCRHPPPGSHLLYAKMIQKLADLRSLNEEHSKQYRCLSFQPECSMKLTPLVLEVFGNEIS
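Fluorescence polarization assay measuring small-molecule disruption of VDR binding to the coregulator peptide SRC2-3. Compounds were pin-transferred (23 nl) into the reagent mix and incubated 2 h at room temperature before reading.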
Numbers without * were called inactive; & = joins results of further samples; [ ] = another dose, or the depositor's remark. % is scaled to controls: 0 for no effect and ±100 for the full control effect; potency is read from the fitted curve at half-maximal effect.

item	VDR inhibitor	molecule
1	-3%	CCOc1ccc(CCN2C(=O)C3C4C=CC(C4)C3C2=O)cc1OCC (centres undefined)
2	-8%	Cc1ccc(CNS(=O)(=O)c2ccc(F)c(F)c2)n1C
3	-21%	CN(CCc1ccccc1)C(=O)c1ccc(NC(=O)Cc2ccc(NC(=O)C3CCCN(S(=O)(=O)c4cccc([N+](=O)[O-])c4)C3)cc2)cc1 (centres undefined)
4	-4%	Cc1c(Br)c([N+](=O)[O-])nn1C(C)C(=O)NCc1ccco1 (centres undefined)
5	-3%	CCN1CCN(CCC(=O)Nc2cc(OC)cc(OC)c2)CC1
6	7%	CCN(CC)C(=S)Nc1c(C)n(C)n(-c2ccccc2)c1=O
7	2%	CN(C)C(=O)c1ccc(-c2ccc3ncnc(Nc4ccccc4)c3c2)cc1
8	1%	CCOc1ccc(C(C)=O)cc1Cn1nc(C(=O)O)c2ccccc2c1=O
9	-7%	COc1ccc(/C=C/C(=O)Nc2ccc(C34CC5CC(CC(O)(C5)C3)C4)cc2)cc1OC
10	-4%	COc1ccc(CCNC(=O)c2cc(Nc3cc(C)cc(C)c3)nc3ccccc23)cc1OC
11	7%	COc1ccccc1CCNC(=O)C(=O)NCC(c1ccco1)S(=O)(=O)c1ccc(C)cc1 (centres undefined)
12	4%	O=C(CNc1cccc(F)c1)Nc1cccc(S(=O)(=O)N2CCCCC2)c1
13	-13%	C[C@H](O)[C@@H]1C(=O)N2CCc3ccc(-c4ccccc4)cc3[C@@H]2C[C@@H]1N(C)C(=O)NC1CCCCC1
14	-3%	CN1C(=O)C(O)(C2CCCCCC2=O)c2ccccc21 (centres undefined)
15	-22%	COc1ccccc1N(CC(=O)NCc1ccc2c(c1)OCO2)C(=O)CCC(=O)Nc1nccs1
16	10%	O=S(=O)(c1ccc2ccccc2c1)N(CC(O)CN1CCOCC1)c1ccccc1 (centres undefined)
17	-7%	COc1ccc(NC(C)C(=O)N/N=C/c2ccccc2OCc2ccc(Br)cc2)cc1 (centres undefined)
18	17%	COc1cc(/C=N/NC(=O)c2ccc(CN3c4cccc5cccc(c45)S3(=O)=O)cc2)cc(OC)c1O
19	4%	Cc1cccc(N2CC(C(=O)Nc3ccccc3N3CCCC3)CC2=O)c1C (centres undefined)
20	-6%	COc1cccc(/C=C2\SC(=S)N(CCC(=O)N3CCCCC3CCO)C2=O)c1 (centres undefined)
21	2%	O=C(NCCN1CCOCC1)c1ccc2ccccc2c1
22	-7%	Cc1cc(C)n(-c2ccc(C(=O)N3CC(C)OC(C)C3)cc2)n1 (centres undefined)
23	5%	CC[C@@H](Nc1ncnc2c1oc1ccccc12)C(=O)O
24	-5%	COc1cc(OC)cc(-c2c(-c3ccc(F)cc3)c3cc(-c4ccc5cc[nH]c5c4)ccc3n2C)c1
25	18%	Cc1c(CCNC(=O)c2ccc(Br)o2)sc2nc(-c3ccc(Cl)cc3)nn12
26	3%	COc1cccc(C(=O)Nc2ccccc2NC(=O)c2cccc(OC)c2)c1
27	3%	COc1ccccc1C(CNC(=O)c1cccc(S(=O)(=O)N2c3ccccc3CC2C)c1)N(C)C (centres undefined)
28	-21%	COc1ccc(OC)c(-c2nnc3n2N=C(c2ccc(OC)c(OC)c2)CS3)c1
29	0%	OCCOCCn1c(C(CO)Nc2nc(-c3ccc(Cl)cc3)cs2)nc2ccccc21 (centres undefined)
30	5%	Cc1[nH]nc2c1C(c1ccsc1)C1=C(CC(C)(C)CC1=O)N2 (centres undefined)
31	10%	O=C(Nc1ccn(Cc2ccccc2)n1)c1ccc(F)cc1
32	-6%	CC1CN(C(=O)COC(=O)c2cc(=O)c3ccccc3o2)CC(C)O1 (centres undefined)
33	0%	COc1ccccc1NC(=O)CSc1nnc(COc2ccccc2C)o1
34	-2%	Cc1ccc(C(C)NC(=O)C2CCCC2)cc1C (centres undefined)
35	23%	O=C(Nc1ccc2c(c1)CCC2)C1COc2ccccc2O1 (centres undefined)
36	-17%	CCC(C)NC(=O)c1c(-c2cc(Cl)c(OC)c(Cl)c2)noc1C (centres undefined)
37	0%	CC(C)Cc1cc(CN2CCC(CO)(Cc3cccc(C(F)(F)F)c3)CC2)[nH]n1
38	0%	Cc1ccc(-c2[nH]nc3c2C(c2ccc(OC(=O)N4CCOCC4)cc2)C(C#N)=C(N)O3)cc1 (centres undefined)
39	9%	Cc1c(N(C)S(=O)(=O)c2ccc(Cl)c(C(=O)NCC(C)(C)N3CCOCC3)c2)c(=O)n(-c2ccccc2)n1C
40	3%	O=C(c1ccc(S(=O)(=O)NCc2ccco2)cc1)N1CCN(c2ccccc2)CC1

Filtered by structure: the entries above with an NH in an aromatic ring.
item	VDR inhibitor	molecule
24	-5%	COc1cc(OC)cc(-c2c(-c3ccc(F)cc3)c3cc(-c4ccc5cc[nH]c5c4)ccc3n2C)c1
30	5%	Cc1[nH]nc2c1C(c1ccsc1)C1=C(CC(C)(C)CC1=O)N2 (centres undefined)
37	0%	CC(C)Cc1cc(CN2CCC(CO)(Cc3cccc(C(F)(F)F)c3)CC2)[nH]n1
38	0%	Cc1ccc(-c2[nH]nc3c2C(c2ccc(OC(=O)N4CCOCC4)cc2)C(C#N)=C(N)O3)cc1 (centres undefined)

Later entries
item	VDR inhibitor	molecule
41	11%	O=[N+]([O-])c1ccc(F)cc1Oc1nc(-c2cccnc2)nc2ccccc12
42	10%	O=c1cnnc(Nc2ccc(F)cc2)[nH]1
43	25µM*	CN(C)c1ccc(-c2nc(-n3ccnc3)c3ccccc3n2)cc1
44	-1%	CCN(CC)Cc1c(C(=O)N/N=C/c2ccncc2)nnn1-c1nonc1N
45	24%	NS(=O)(=O)c1ccc(CNc2ncnc3sccc23)cc1
46	-9%	CCN1/C(=C2/SC(=S)N(NC(C)=O)C2=O)Sc2ccccc21
47	4%	Cc1ccc2c(CN3C(=O)NC4(CCCCC4)C3=O)cc(=O)oc2c1C
48	-15%	CCOC(=O)c1c(Nc2ccccc2)nnc(-c2ccccc2)c1-c1ccccc1
49	-15%	Cc1nn(CC(=O)NC2CCS(=O)(=O)C2)c(C)c1[N+](=O)[O-] (centres undefined)
50	-19%	Cc1noc(C)c1-c1ccc2ncnc(NC3CC3)c2c1
51	-17%	COc1ccccc1C(=O)N(Cc1nc(-c2ccc(Cl)cc2)no1)C(C)C
52	-1%	Cc1ccc(C(=O)Nc2ccccc2N2CCCCC2)cc1
53	-16%	O=c1c(Cl)c(NCCO)ncn1-c1ccccc1
54	-12%	CN(C(=O)COC(=O)CNC(=O)c1ccccc1Cl)c1ccccc1
55	11%	CCC(C)(C)NC(=O)/C=C/c1cnc2ccccc2n1
56	11%	O=c1oc2ccccc2c(=O)c2ccccc12
57	-12%	Cn1c(=O)c2c(nc(OC3CCCC3)n2C)n(C)c1=O
58	-14%	COc1ccc2cc(C#N)c(Nc3cccc(F)c3)nc2c1
59	-2%	O=C(O/N=C(\c1ccccc1)c1ccccn1)c1ccc(Cl)c(Cl)c1
60	-3%	Cc1csc(=S)n1-c1ccccc1
61	-2%	CCN(C(=O)C1CCN(S(=O)(=O)c2ccc3c(c2)CCCN3C(C)=O)CC1)c1cccc(C)c1
62	-4%	COc1ccc(NC(=O)Cn2c(=O)n(CCC(=O)NCCc3ccc(OC)c(OC)c3)c(=O)c3ccccc32)cc1Cl
63	-9%	CCc1ccc(-c2nc(C(N)=O)c3[nH]c(=O)n(-c4ccccc4OC)c3n2)cc1
64	-23%	O=c1[nH]c(SCc2ccccc2)nc2c1sc1ccccc12
65	-17%	COC(=O)c1cc2oc(C)cc2n1Cc1cc(C)ccc1C
66	-9%	COc1cc2sc(C)nc2cc1C
67	-15%	Cc1cc(O)ccc1Nc1nc(-c2cccnc2)cs1
68	2%	O=C(NCCC1=CCCCC1)C1CCN(c2nnc(-n3cccc3)s2)CC1
69	0%	Cc1cc(C(=O)NNC(=O)C(C)NS(=O)(=O)c2ccccc2F)c(C)o1 (centres undefined)
70	3%	CCc1ccc(NC(=O)Cn2c3ncccc3c(=O)n2-c2ccc(C)c(C)c2)cc1
71	12%	CCOC(=O)C1=C(N)Oc2cc(O)ccc2C1c1cccc(Cl)c1 (centres undefined)
72	8%	Cc1ccccc1OCC(=O)N/N=C/c1c(C)nn(-c2ccccc2)c1Cl
73	11%	COc1ccc2c(c1)c1c(c(=O)n(CCc3ccccc3)c(=O)n1Cc1ccc(Cl)cc1)n2C
74	18%	CCOc1ccccc1C1CC(c2cccs2)=NN1S(C)(=O)=O (centres undefined)
75	-12%	CCOc1cc(CNCCCN2CCOCC2)cc(Br)c1OCC(=O)Nc1cccc(C(F)(F)F)c1
76	-17%	Cc1[nH]c(C)c(S(=O)(=O)Nc2ccc(F)cc2Cl)c1C(=O)N1CCCC1
77	6%	C#Cc1ccc(CN2CCC(Oc3ccc(C(=O)NCc4ccccn4)cc3)CC2)cc1
78	-12%	CCC(C)NS(=O)(=O)c1ccc(NC(=O)c2c(-c3ccccc3)noc2C)cc1 (centres undefined)
79	-7%	O=C(c1ccc(CS(=O)Cc2ccc(Cl)cc2)o1)N1CCN(c2ccccc2F)CC1 (centres undefined)
80	-7%	CCOc1ccccc1C1NC(=O)c2ccccc2O1 (centres undefined)

VDR inhibitor: hit marks shown above
item	VDR inhibitor	molecule
43	25µM*	CN(C)c1ccc(-c2nc(-n3ccnc3)c3ccccc3n2)cc1

Next section.
item	VDR inhibitor	molecule
81	-5%	CCc1ccc(OCc2n[nH]c(=S)n2Cc2ccccc2)cc1
82	-11%	CCc1nnc(NC(=O)CCC(=O)N2CCN(Cc3ccc(C)cc3C)CC2)s1
83	5%	CSCCC(NC(N)=O)C(=O)Nc1cccc(C#N)c1 (centres undefined)
84	-16%	COC(=O)c1ccc(NC(=O)CN2C(=O)c3cccc4cccc2c34)cc1
85	10%	O=C(Nc1ccccn1)c1ccc(S(=O)(=O)N2CCCC2)cc1
86	12%	O=c1c2sccc2nc(SCc2cc(=O)n3cc(Cl)ccc3n2)n1-c1ccc(F)cc1
87	-10%	Cc1cccn2c(=O)c3cc(S(=O)(=O)c4ccccc4)c(=N)n(Cc4ccc(F)cc4)c3nc12
88	8%	c1ccc(OCc2nc(-c3ccncc3)no2)cc1
89	28%	Cc1cc(C)nc(NS(=O)(=O)c2ccccc2)n1
90	-1%	COC(=O)c1cc(OC)c(OC)cc1NCC(=O)Nc1ccc(OC)c(OC)c1
91	-1%&-10%	O=C(NC(NC(=S)Nc1ccc(F)c([N+](=O)[O-])c1)C(Cl)(Cl)Cl)C(c1ccccc1)c1ccccc1 (centres undefined)
92	4%	CCc1ccccc1Nc1nn2c(=O)c3ccc(C(=O)NCc4ccc(C)cc4)cc3nc2s1
93	16%	COc1ccc(/C=C2/C(=O)N=C(N)N2C)cc1OC
94	-8%	O=C(NCCNC(=O)c1ccccc1)c1ccccc1
95	22%	Cc1cccc(C)c1NC(=O)[C@@]1(CC(=O)O)CC(/C=C/c2ccccc2)=NO1
96	-28%	Cc1c(NC(=O)C(C)Oc2cccc(Cl)c2)c(=O)n(-c2ccccc2)n1C (centres undefined)
97	3%	Cc1nc2sc(C(c3ccc(F)cc3)N3CCN(C(=O)c4ccco4)CC3)c(O)n2n1 (centres undefined)
98	8%	COc1ccc(-c2[nH]ncc2CN2CCCOc3c(cccc3OC)C2)c(OC)c1
99	5%	Cc1ccc(C2=NN(C(=O)CSc3nc4ncc(Cl)cc4[nH]3)C(c3ccco3)C2)cc1 (centres undefined)
100	-6%	Cc1ccc(N2CC(NC(=O)CCCc3ccccc3)CC2=O)cc1 (centres undefined)
101	-7%	CCCCn1cnc2c([nH]c3ccccc32)c1=O
102	30%[activator]	Cc1ccccc1OC(=O)c1cccc(S(=O)(=O)N2CCN(C)CC2)c1
103	7%	Cc1oc2c(c(C)cc3oc(=O)c(CC(=O)NCCc4ccc(Cl)cc4)c(C)c32)c1C
104	-11%	Cc1cc(=O)n(C)c(=O)n1CCCCOc1cccc([N+](=O)[O-])c1
105	22%	O=c1[nH]c(=O)n(Cc2ccccc2)c2nc(-c3ccco3)cc(C(F)(F)F)c12
106	-3%	COc1cc(OC)cc(C(=O)NC(=S)Nc2cc3oc4ccccc4c3cc2OC)c1
107	-7%	CCC(C)[C@H](NC(=O)[C@H](Cc1ccccc1)n1c(=O)[nH]c2ccccc2c1=O)C(=O)N1CCC(C(=O)O)CC1 (some centres undefined)
108	-12%&0%	COc1cccc(NC(=O)CCc2c(C)nc3nc(CNC(=O)c4cccc(F)c4)nn3c2C)c1
109	-4%	Cn1c(-c2ccc3c(c2)OCO3)c(C(=O)O)c(=O)c2ccccc21
110	-12%	O=S(=O)(NCCc1ccncc1)c1ccc(Br)cc1
111	4%&-20%	COC(=O)C(NS(=O)(=O)c1ccccc1Br)C(C)C (centres undefined)
112	7%	COc1ccccc1C(=O)N/C(=C/c1ccco1)C(=O)Nc1ccc(C(=O)O)cc1
113	-12%	CCOC(=O)[C@@H]1[C@H]2COc3ccccc3[C@@H]2N2C(=O)N(c3ccc(F)cc3)C(=O)[C@@]12C
114	-2%	NS(=O)(=O)c1cccc2cccnc12
115	-1%	CC1CN(C(=O)CCC(=O)NCc2cccc(Cl)c2)c2ccccc2S1 (centres undefined)
116	8%	Cc1ccc(-c2nnn(CC(=O)N(Cc3ccc(F)cc3)C(C(=O)NC3CCCC3)c3ccncc3)n2)o1 (centres undefined)
117	30%[activator]	Cc1cc(C)c(C)c(S(=O)(=O)NCCCN2CCOCC2)c1C
118	-1%	COc1cc(OC)c(NC(=O)CN(C)S(=O)(=O)c2ccc3c(c2)CCCC(=O)N3)cc1Cl
119	5%	Cc1nc(-c2cccc(S(=O)(=O)N3CC(C)CC(C)C3)c2)cs1 (centres undefined)

From entry 106 to 110, copied from above:
item	VDR inhibitor	molecule
106	-3%	COc1cc(OC)cc(C(=O)NC(=S)Nc2cc3oc4ccccc4c3cc2OC)c1
107	-7%	CCC(C)[C@H](NC(=O)[C@H](Cc1ccccc1)n1c(=O)[nH]c2ccccc2c1=O)C(=O)N1CCC(C(=O)O)CC1 (some centres undefined)
108	-12%&0%	COc1cccc(NC(=O)CCc2c(C)nc3nc(CNC(=O)c4cccc(F)c4)nn3c2C)c1
109	-4%	Cn1c(-c2ccc3c(c2)OCO3)c(C(=O)O)c(=O)c2ccccc21
110	-12%	O=S(=O)(NCCc1ccncc1)c1ccc(Br)cc1

An excerpt (hit frequency here may not be typical).
